# From PubChem BioAssay
# CDC25B CDK2 inh: human CDC25B-CDK2/CyclinA binding inhibition; z-score (no concentration beside the values); HTRF CDC25B-CDK2/CyclinA binding, anti-His/anti-Flag; active compounds read high; P30305+P24941; actives 0.72% (n = 94,000);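 further: score is relative to mean and SD of negative controls; strong numbers were not always called active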
# HIV TAR-Tat: HIV-1 TAR-Tat binding disruption; AID 1259389; HIV-1 TAR RNA, Tat peptide displacement FRET; active compounds read high; actives 0.6% (n = 100,000); z-score (test concentration not listed);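 further: score is relative to mean and SD of negative controls; some compounds called inactive have numbers as strong as hits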
# Active calls of the source: *; · = no result given.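 How the source made its calls: active means z-score from 3 up in half or more of its runs; inactive means the rest.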
# Values run as follows: HIV TAR-Tat	CDC25B CDK2 inh
CCOC(=O)C1Cn2c(nc3c(c2=O)C2(CCCC2)Cc2ccccc2-3)S1 (configuration not stated)
 : 0.27	-0.09
CN(Cc1ccccc1)c1nnc(NC(=O)NC2CCCC2)s1
 : 2.4	0.01
CN(C)c1ccc(/C=C(\C#N)S(=O)(=O)c2ccc(Cl)cc2)c(F)c1C#N
 : ·	-2
CCOC(=O)c1cc(S(=O)(=O)N(C)CC(=O)N2CCOCC2)cn1C
 : 0.37	·
Cc1ccc(S(=O)(=O)N2CCN(Cc3cc(Br)ccc3O)CC2)cc1
 : 1.99	-0.58
O=C(Nc1nccs1)c1c2c(nc3ccccc13)C(=O)N(C1CCCCC1)C2
 : 0.6	·
COc1cc(NC(=O)c2cccs2)c(OC)cc1Cl
 : 2.64	-1.31
CC(=O)Nc1ccc(S(=O)(=O)[C@H]2CS(=O)(=O)C[C@@H]2N2CCCC2)cc1
 : 0.82	0.59
NC(=O)c1nc(-c2cccc(Br)c2)nc2c1[nH]c(=O)n2C1CCCCC1
 : 0.39	-1.87
CCOC(=O)CNC(=O)c1cnc(N2CCN(CC)CC2)nc1C
 : 2.3	·
Cc1csc(NC(=O)Cc2csc(C)n2)n1
 : 0.59	-0.38
Cc1ccc(/C(O)=C/C(=O)C(=O)NNC(=O)c2ccccc2Nc2ccccc2)c(C)c1
 : ·	-1.29
Cc1ccc(C)c(NS(=O)(=O)c2cc3c(cc2Cl)NC(=O)CO3)c1
 : 1.32	·
Cc1ccc2nc(C3=C(O)CN(c4ccc(C(=O)OC(C)C)cc4)C3=N)[nH]c2c1
 : 0.64	0.39
NC(C(=O)O)C(C(F)(F)F)C(F)(F)F (configuration not stated)
 : ·	-1.36
COC(=O)c1c(C)oc2ccc(OC(=O)C(C)(C)C)cc12
 : -0.22	-4.45
COCCn1c(CN(Cc2ccccc2)Cc2ccccc2)nc2c1c(=O)[nH]c(=O)n2C
 : -0.29	-0.68
O=C(/C=C/c1ccccc1)Nc1ccc2oc(-c3c(F)c(F)c(F)c(F)c3F)nc2c1
 : ·	-2.14
CCCn1c(CCC(=O)NCc2ccccn2)nc2cccnc21
 : 2.77	-1.69
O=C(CS(=O)(=O)c1ccc2c(c1)S(=O)(=O)N=CN2)N1CCN(c2ccccc2F)CC1
 : 2.03	·

# In another format: results already given
SMILES	HIV TAR-Tat	CDC25B CDK2 inh
Cc1ccc(C)c(NS(=O)(=O)c2cc3c(cc2Cl)NC(=O)CO3)c1	1.32	·
Cc1ccc2nc(C3=C(O)CN(c4ccc(C(=O)OC(C)C)cc4)C3=N)[nH]c2c1	0.64	0.39
NC(C(=O)O)C(C(F)(F)F)C(F)(F)F (configuration not stated)	·	-1.36
COC(=O)c1c(C)oc2ccc(OC(=O)C(C)(C)C)cc12	-0.22	-4.45

# (cont.)
# Values run as follows: HIV TAR-Tat	CDC25B CDK2 inh
COc1ccc(CNc2nc3ccccc3n2CCN2CCOCC2)c(OC)c1
 : -0.98	-0.6
NC(=O)c1cnc2scc(-c3ccccc3)n2c1=O
 : 1.13	-0.02
Cc1c(/C=C/c2nc3ccccc3c(=O)n2-c2ccccn2)c2ccccc2n1C
 : -5.78	0.76
O=C1COc2cc(S(=O)(=O)CCC(=O)N3CCN(c4ccccc4F)CC3)c(Cl)cc2N1
 : 0.54	·
Cn1c(=O)c2c(nc(NCc3ccccc3)n2Cc2ccccc2Br)n(C)c1=O
 : ·	-0.86
CC1(C)CC(=O)c2sc(NC(=O)CN3CCCCC3)nc2C1
 : ·	-1.67
COCCNS(=O)(=O)c1cc2c3c(c1)CCC(=O)N3CCC2
 : 1.39	·
Cc1c(C(=O)N2CCC3(CC2)OCCO3)oc2ccc(S(=O)(=O)N3CCCC3)cc12
 : ·	0.13
Cc1cccc(C2N3CC4(C)CN2CC(C)(C3)C4=O)c1 (configuration not stated)
 : 1.28	1.18
CCN(CC)c1ncnc2c1cnn2-c1ccc(C)cc1
 : 0.55	·
CCCCNC(=O)c1oc2ccc(S(=O)(=O)N3CCCC(C)C3)cc2c1C (configuration not stated)
 : ·	-1.01
O=C(CCN1CCOCC1)c1ccc(O)cc1
 : ·	-0.58
CC1CC(C)CN(c2ncnc3c2nnn3C)C1 (configuration not stated)
 : 1.88	·
Cn1c2c(c3ccccc31)C(C(=O)NCc1ccccc1)N(C1CC1)C(=O)CS2 (configuration not stated)
 : -0.14	·
CCCN1C(=O)c2ccc(-c3ccco3)n2CC1(C)C(=O)NCCC(C)C (configuration not stated)
 : -6.08	·
NNC(=O)CNC(=O)c1ccco1
 : ·	-2.42
CCc1ccc(N2C(=O)N(Cc3ccc(F)cc3)C3CS(=O)(=O)CC32)cc1 (configuration not stated)
 : -1.22	·
Cc1cc(CNC(=O)Nc2ccc(Br)cc2F)c(C)n1-c1ccc(F)cc1
 : -0.63	·
Cc1ccc(-c2cnc3c(-c4ccccc4)cnn3c2N)cc1
 : 1.31	-1.21
CCN1CCN(CCCNC(=O)c2sc3nc4n(c(=O)c3c2C)CCC4)CC1
 : 2.25	·
O=C(COc1ccc(Cl)cc1)Nc1ccc(Br)cn1
 : 0.47	-6.47
COc1ccc(-c2noc(-c3ccccc3F)n2)cc1OC
 : 1.18	-4.38
COc1ccc(Oc2nc3c(c(=O)n(Cc4ccc(Br)cc4)c(=O)n3C)n2C)cc1
 : 0.87	1.07
CCCCCSc1nc2n(n1)C(c1ccc(OCC)c(OC)c1)C1=C(CCCC1=O)N2 (configuration not stated)
 : 0.84	-3.58
Cc1ccc(Nc2nc(NCC(C)C)nc(N)c2[N+](=O)[O-])cc1
 : 0.49	·
C=CCOc1ccc(-c2nn(-c3ccccc3)cc2C2NC(=O)NC(C)=C2C(=O)OC(C)C)cc1C (configuration not stated)
 : ·	-0.74
CCCCN(c1ccccc1)S(=O)(=O)c1ccc(N2CCCCS2(=O)=O)cc1
 : 0.39	·
Cc1nn(-c2ccc(N(C)C3CCCCC3)nn2)c(C)c1CCC(=O)O
 : 0.16	-0.02
CN1CCN(C(=O)c2cc3c(s2)-c2ccc(Cl)cc2SC3)CC1
 : 2.84	-2.54
COc1cc(C(=O)Oc2ccc(NC3=NS(=O)(=O)c4ccccc43)cc2)cc(OC)c1OC
 : ·	0.87
CC(C)C(=O)Nc1nc2cc(NS(=O)(=O)c3ccc4c(c3)CCCC4)ccc2s1
 : 2.17	·
Cc1csc(Nc2nc(N)c(C(=O)Nc3ccccc3)o2)n1
 : 3.8	-3.26
CCCN=C1NS(=O)(=O)C(c2ccc(C(C)C)cc2)=C1C
 : -1.84	-1.22
CSC1=N/C(=C\c2ccc(F)cc2)C(=O)S1
 : -0.16	2.06
O=S(=O)(CS(=O)(=O)NCCc1ccc(Cl)cc1)NCCc1ccc(Cl)cc1
 : ·	-0.48
C=CCN(Cc1nc(-c2ccc(C)cc2)no1)S(=O)(=O)c1ccc(OC)cc1
 : 0.62	-1.84
CCc1nnc(NC(=O)c2ccc(C(C)(C)C)cc2)s1
 : ·	-1.03
CSCCC1COC(c2cccn2Cc2c(C)cc(C)cc2C)=N1 (configuration not stated)
 : 0.83	-2.01
CN(C)c1ccc(CNC(=O)c2ccc(NC(=O)C3=CSCCO3)cc2)cc1
 : 1.39	·
COc1nccn(-c2ccc3c(c2)CCC3)c1=O
 : -0.96	-1.9
CSc1nnc2c(n1)OC(c1ccc(C)o1)N(C(C)=O)c1ccc(Br)cc1-2 (configuration not stated)
 : -0.2	-1.01
COc1ccc(Br)cc1C1CC(=O)Nc2cc3c(cc21)OCO3 (configuration not stated)
 : ·	-0.6
COc1ccccc1-n1ccnc1SCC(=O)Nc1nc2ccccc2s1
 : -3.68	·
CC1=CC(=O)OC(c2ccccc2)C1 (configuration not stated)
 : ·	-1.11
COc1ccc(Cn2c(=O)c3cccnc3n(CC(=O)c3ccc(Br)cc3)c2=O)cc1
 : -2.29	-3.26
COc1ccccc1NCc1nc2ccccc2n1CCOc1ccccc1
 : 1.12	-0.85
COC(=O)c1cc(=O)n(-c2cc(C(F)(F)F)cc(C(F)(F)F)c2)[nH]1
 : ·	-2.4
CCCn1c(CCC(=O)O)ccc1-c1cccs1
 : -3.32	-1.13
O=C1CCSc2c1cccc2C(=O)N1CCc2ccccc21
 : 0.48	·
Oc1ccc2ccccc2c1C1Nc2cccc3cccc1c23 (configuration not stated)
 : 1.07	-1.07
C=CCN1/C(=C/c2cc[n+](CC)cc2)Sc2ccccc21
 : 1.51	-2.83
O=C(Nc1ccccc1F)c1cc2c(Cl)nc3ccccc3c2s1
 : ·	-3.99
O=C(Cc1cccc(Cl)c1)c1ccc(O)cc1O
 : -1.57	-4.22
Cc1ccc(Cl)cc1Nc1nnc(C(C)(C)C)c(=O)[nH]1
 : -0.41	-1.55
S=C(NC1CCCCC1)C(=S)NC1CCCCC1
 : ·	0.15
O=C(c1n[nH]c(=O)c2ccccc12)N1CCN(c2ccc(F)cc2)CC1
 : ·	0.24
N=c1ncn(CC(O)CO)c2nc(N3CCOCC3)[nH]c12 (configuration not stated)
 : 0.75	-3.32
O=C(O)C1CCCN1C(=O)Nc1ccc(Br)cc1 (configuration not stated)
 : 3.17	-1.41
COc1ccccc1N1CCN(S(=O)(=O)c2ccc(Oc3ccccc3Cl)cc2)CC1
 : ·	-0.82
CCc1nc(-c2csc(S(=O)(=O)N3CCC(C(=O)N4CCC(C)CC4)CC3)c2)no1
 : 1.18	·

# Later entries:
# Values run as follows: HIV TAR-Tat	CDC25B CDK2 inh
CCn1cc(C(=O)NC2CCCCCC2)c(=O)c2ccc(C)nc21
 : ·	-0.09
Nc1nc(/C=C/c2ccc(O)cc2)nc(-c2ccccc2O)n1
 : -0.16	0.88
Cc1cc2nc(COc3ccc(Cl)cc3)[nH]c2cc1C
 : 1.86	0.19
O=S(=O)(Nc1ccc(Cl)cc1)c1cc(-c2noc(C3CC3)n2)cs1
 : -0.11	·
O=C1c2ccccc2C(Nc2ccc(Br)cc2)N1c1cccnc1 (configuration not stated)
 : 1.63	1.44
CCOC(=O)c1sc2nc(C)nc(NC3CCCCC3)c2c1C
 : ·	-1.67
CCOc1ccc(Nc2nncc(=O)[nH]2)cc1
 : 0.87	0.64
Cc1nc(-c2ccc(C)c(S(=O)(=O)NC(C)(C)C)c2)cs1
 : 0.9	·
CCc1nn2c(=O)cc(COC(=O)c3ccc(OC)c(OC)c3)nc2s1
 : -0.76	·
Cc1nc(-c2coc3c(C)c(O)c(CN(C)C)cc3c2=O)cs1
 : 2.39	-0.65
O=C1c2ccncc2C(=O)N1Cc1ccccc1
 : 0.49	-0.94
O=C(CSc1nc2c(c(=O)[nH]1)CCC2)N1CCCCCC1
 : ·	-0.86
Cc1cc(NS(=O)(=O)c2cc(-c3ccc(=O)[nH]n3)ccc2C)ccc1Br
 : -0.34	-2.79
COc1ccc(NS(=O)(=O)C2CCS(=O)(=O)C2)cc1Cl (configuration not stated)
 : -0.69	-1.29
CCCc1cc(=O)n2nc(N3CCC(C(=O)N4CCN(c5ccc(F)cc5)CC4)CC3)sc2n1
 : 2.66	1.53
CN(C)c1ccc(C2/C(=C(\O)c3ccccc3)C(=O)C(=O)N2CCCC(=O)O)cc1 (configuration not stated)
 : ·	-1.61
Cc1ccc(Nc2nc(N3CCCCC3)nc3c2cnn3C)c(C)c1
 : 1.7	·
COc1ccc(-c2cc(N)n(S(=O)(=O)c3ccc(Br)cc3)n2)cc1OC
 : 2.49	-1.18
COC(=O)c1cc(OC)cc(OC)c1C1C(C#N)=C(C)NC(C)=C1C#N
 : ·	-2.81
COc1ccc(-c2n[nH]c(C)c2-c2ccccc2)c(O)c1
 : ·	0.18
Cc1c(C(=O)N2CCc3ccccc32)sc2nc3n(c(=O)c12)CCCCC3
 : 0.95	·
Cc1ccc(-c2cn3c(n2)sc2cc(C(=O)N4CCN(C(=O)c5ccco5)CC4)ccc23)cc1
 : 2.33	·
CCC1=NN(C(=O)C2CCCCC2)C(O)(C(F)(F)F)C1 (configuration not stated)
 : ·	-1.13
Cc1c(Cl)cccc1N1C(=O)C2CC=CC(C)C2C1=O (configuration not stated)
 : ·	-1.54
O=C(O)c1ccc2c3c(ccc(C(=O)O)c13)C(=O)NC2=O
 : 0.75	1.27
CC(C)CN1C(=O)C(=O)/C(=C(\O)c2ccc(Cl)cc2)C1c1cccnc1 (configuration not stated)
 : -0.32	-1.24
COc1ccc(N2CCN(C(=O)NC3COc4ccc(OC)cc4C3)CC2)cc1 (configuration not stated)
 : 0.53	·
O=C(O)c1c2c(nc3ccc(S(=O)(=O)N4CCC(C(=O)N5CCCC5)CC4)cc13)CCCCC2
 : -0.09	-0.24
O=C(NC(=S)Nc1cccc2nonc12)c1ccccc1
 : ·	-1.65
O=C(O/N=C1\CCc2ccccc21)c1cccc(F)c1
 : ·	-0.58
CCc1cc2c(cc3n2CC(C)(C(=O)NC2CCCCC2)N(CCN(CC)CC)C3=O)s1 (configuration not stated)
 : 2.01	-0.81
Cc1cc(C(=O)NN)c2cc(Br)ccc2n1
 : ·	-0.06
COc1ccc(OC)c(CNS(=O)(=O)c2ccc3c(c2)oc(=O)n3C)c1
 : ·	-0.75
O=C1c2ccccc2-c2onc3c(N4CCCCC4)cc(NCCN4CCOCC4)c1c23
 : 6.42*	1.91
Cc1ccc(-c2[nH]nc3nc(-c4ccccc4)cc(C(=O)O)c23)cc1
 : 2.89	·
Cc1csc2nc(CSc3nnc(-c4ccc(Cl)cc4)o3)cc(=O)n12
 : 1.98	-2.07
CN(C)CCCOC(=O)c1sc2ccccc2c1Cl
 : ·	-0.28
CC1CC(C)CN(C(=O)c2ccc3c(Cl)c4c(nc3c2)CCC4)C1 (configuration not stated)
 : 0.64	-1.5
CC1CC(NNc2ccc([N+](=O)[O-])cc2[N+](=O)[O-])NC(=S)N1 (configuration not stated)
 : ·	-2.21
O=C1CCCc2cc(S(=O)(=O)N3CCN(Cc4ccc5c(c4)OCO5)CC3)ccc2N1
 : 1.11	·
COc1ccc(NC(=O)C2=CC(c3ccco3)=NS(=O)(=O)N2C)cc1
 : 1.78	-2.08
CCOCCCN1CNc2c(c(=O)n(C)c(=O)n2C)C1
 : 2.1	0.21
COc1ccc(CN2CCc3nc(N4CCC(C)CC4)[nH]c(=O)c3C2)cc1OC
 : 1.28	-1.24

# The order is random; any-hit rate near 0.9%.
